HPGD block – HPGD (human) dehydrogenase inhibition; 4.3% of 150,000 active; AID 894; Potency, µM, without a hit: at the top dose activity change, negative = inhibition, hits mostly inhibitors; purified HPGD, NADH fluorescence kinetic, PGE2 substrate; active = well fitted inhibition curve with a large enough effect (not every such curve was filed as active); inconclusive = small, poorly fitted or top-dose-only effect, or another doubt; inactive = no such curve, though single readings can be large or run the other way;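 also: top concentration of the series not given in the record; plate controls included wells without enzyme; inactives centre near -10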
Target sequence (P15428 whole entry, looked up): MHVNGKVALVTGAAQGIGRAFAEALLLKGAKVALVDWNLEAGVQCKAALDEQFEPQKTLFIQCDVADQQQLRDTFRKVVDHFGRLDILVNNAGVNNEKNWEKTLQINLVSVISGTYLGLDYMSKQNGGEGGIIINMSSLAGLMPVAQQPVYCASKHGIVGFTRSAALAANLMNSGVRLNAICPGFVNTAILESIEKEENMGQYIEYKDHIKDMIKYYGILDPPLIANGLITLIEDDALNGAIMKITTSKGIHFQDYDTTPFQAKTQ
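NADH formation kinetics: reaction with 30 uM PGE2 and 1 mM NAD+ (final), 20 nM enzyme, Tris-HCl pH 8 with Tween 20, after 15 min compound preincubation at room temperature. Fluorescence change, last versus first of five reads.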
An asterisk follows results filed as active; ? = inconclusive. % is scaled to controls: 0 for no effect and ±100 for the full control effect; potency is read from the fitted curve at half-maximal effect.

structure | HPGD block
C=C1c2ccccc2O[C@H](C(=O)OCC)[C@@H]1CCC(C)C (tested in a mixture with another compound) | -11%
Cc1ccc(C2CC(=O)NC(SCc3ccccc3)=C2C#N)o1 (stereo unspecified) | 22µM*
CN1CCN(c2nc3c(c(=O)[nH]c(=O)n3C)n2Cc2cccc3ccccc23)CC1 | ?
CCCCCC(=O)N1CCN(CCN=CC2=C(O)CC(c3cccs3)CC2=O)CC1 (stereo unspecified) | 1%
CCOC(=O)C1CCCN(S(=O)(=O)Cc2ccccc2)C1 (stereo unspecified) | -26%
CCOc1ccc(-n2c(N)c(C(=O)NCc3ccco3)sc2=S)cc1 | 32µM*
Cc1ccc2[nH]c3c(=S)nc[nH]c3c2c1 | -27%
CNc1cc([N+](=O)[O-])ccc1N/C=C/C(=O)c1cccs1 | -17%
CCCCc1c(O)nc(SCC(=O)N2CCCCC2)n(-c2ccccc2C)c1=O | 2%
COC(=O)c1cccc(NC(=O)Cc2ccc(OC)cc2)c1C | -6%
CCCCN1C(=O)c2ccccc2C1C(=O)NC1CCCC1 (stereo unspecified) | -1%
Cc1ccc(C)c(NC(=O)CSc2nc3c(c(=O)n2C)SC(C)C3)c1 (stereo unspecified) | -17%
CCOC(=O)CSc1nnc2n1C(C)(C)Cc1ccccc1-2 | -25%
O=C(O)Cc1ccc(NC(=O)c2ccc(NC(=O)c3ccco3)cc2)cc1 | -20%
N#Cc1nc(-c2ccccc2F)oc1NC1CCCCC1 | ?

Brought forward from above: 2 compounds, followed by the next part.
structure | HPGD block
O=C(O)Cc1ccc(NC(=O)c2ccc(NC(=O)c3ccco3)cc2)cc1 | -20%
N#Cc1nc(-c2ccccc2F)oc1NC1CCCCC1 | ?
COc1ccccc1C(=O)NNC1=C(C(=O)C(F)(F)F)CCC1 | 3%
Cc1cccnc1NCc1ccc(O)c2ncccc12 | -27%
CC(=O)OCC1OC(OC(C)=O)C(NC(=O)c2cccnc2)C(OC(C)=O)C1OC(C)=O (stereo unspecified) | -11%
O=C1OC(c2ccc(Br)cc2)=N/C1=C\N1CCCCC1 | -19%
COC(=O)C1=C(CSc2nc3ccccc3o2)NC(=O)NC1c1cc(C)ccc1C (stereo unspecified) | -9%
COc1ccc(OC)c(NC(=O)CC2C(=O)NCCN2C(=O)Nc2cccc(Cl)c2)c1 (stereo unspecified) | -5%
O=C(NC(=S)NC1CCSC1=O)c1ccccc1F (stereo unspecified) | -13%
COc1ccc2c(c1)CCC1C2CC[C@@]2(C)C(O)CCC12 (stereo partly specified) | -8%
Cn1ncc2c(NNC(=O)c3ccc(Cl)c(Cl)c3)ncnc21 | -10%
C=C1CC[C@H](O)C/C1=C/C=C1\CCC[C@]2(C)[C@@H]([C@H](C)CCCC(C)(C)O)CC[C@@H]12 | -4%
COc1ccccc1NC(=O)N1CCCC(C(=O)Nc2cccc(C)c2C)C1 (stereo unspecified) | -15%
COc1ccc(CC(=O)Nc2cccc(-c3cn4ccccc4n3)c2)cc1 | ?
Cc1ccc(NC(=O)CN(C)C(=O)COc2c(Cl)cc(Cl)c3ccc(C)nc23)cc1 | -8%
Nc1ncc(Br)cc1S(=O)(=O)NCCC(=O)N1CCN(c2ncccn2)CC1 | -11%
c1cnc2c(OCc3nc4ccccc4[nH]3)cccc2c1 | -15%

Arranged by SMILES length (descending): part of the list above.
structure | HPGD block
COc1ccc(OC)c(NC(=O)CC2C(=O)NCCN2C(=O)Nc2cccc(Cl)c2)c1 (stereo unspecified) | -5%
COC(=O)C1=C(CSc2nc3ccccc3o2)NC(=O)NC1c1cc(C)ccc1C (stereo unspecified) | -9%
Nc1ncc(Br)cc1S(=O)(=O)NCCC(=O)N1CCN(c2ncccn2)CC1 | -11%
O=C1OC(c2ccc(Br)cc2)=N/C1=C\N1CCCCC1 | -19%
O=C(NC(=S)NC1CCSC1=O)c1ccccc1F (stereo unspecified) | -13%
Cc1cccnc1NCc1ccc(O)c2ncccc12 | -27%

(listing goes on)
structure | HPGD block
COc1cccc(C2NC(C)(C(=O)O)C3C(=O)N(C(C)C)C(=O)C23)c1O (stereo unspecified) | -3%
O=C(CSc1ccc(Cl)cc1)Nc1ccc(N2CCN(c3ccccc3)CC2)c(F)c1 | -6%
CC1CN(C(=O)c2ccccc2Sc2ccccc2C#N)CC(C)O1 (stereo unspecified) | -4%
COc1ccc(CCNc2nc3c(c(=O)n(C)c(=O)n3C)n2C)cc1OC | -4%
Cc1cc(C(=O)N2CCN(Cc3ccc4c(c3)OCO4)CC2)on1 | -9%
O=C(COC(=O)CNC(=O)c1ccccc1)Nc1ccc(Cl)cc1C(F)(F)F | -10%
Cc1ccc(-n2[nH]c(C)c(C=Nc3ccc(S(=O)(=O)Nc4nccs4)cc3)c2=O)cc1 | ?
COc1ccccc1N1CCN(C/C(C)=C/c2ccccc2)CC1 | -12%
O=C(c1csnn1)N1CCC2(CC1)CCN(c1ccccc1)CC2 | -12%
CCNC(=O)COc1cc(C)c(Cl)c(C)c1 | ?
COC(=O)c1cc(OC)c(OC)cc1NCC(=O)Nc1ccc(C)cc1 | -21%
CCNCCNC(=O)c1c(O)c2c([nH]c1=O)CCCC2 | -6%
Cc1ccc2nc(SCc3ccccc3)c(C=O)c(=O)n2c1 | -9%
CCOC(=O)c1c(NC(=O)CSc2nnc3ccccn23)sc2c1CCC2 | -13%
Cc1ccc(OCC(O)CN2C(=O)NC(C)(C)C2=O)cc1C (stereo unspecified) | -4%
COc1ccc(-n2c(-c3ccc(C)cc3)n[nH]c2=S)cc1 | ?
Cc1cccc(Oc2cc(NC(=O)c3ccccc3)cc([N+](=O)[O-])c2)c1 | -25%
N#Cc1nc(-c2ccc(Cl)cc2)oc1NCc1cccc2c1OCO2 | ?
COC(=O)c1ccc(NC(=O)c2cc3sccc3n2C)cc1 | -11%
CCSc1nc2c(c(=O)n1Cc1ccccc1)SC(C)C2 (stereo unspecified) | -17%
O=C(Nc1ccccc1)Nc1cccc(Cl)c1 | -14%
CCn1cc([N+](=O)[O-])c(C(=O)Nc2ccn(C34CC5CC(CC(C5)C3)C4)n2)n1 | -8%
CCCC(=O)N1c2ccccc2NC2=C(C(=O)CCC2)C1c1ccc(F)cc1 (stereo unspecified) | -22%
CCN1C(=O)C2(Nc3ccccc3-c3nc4ccccc4n32)c2cc(OC)ccc21 (stereo unspecified) | -18%
CC(C)[C@H](NS(=O)(=O)c1ccccc1)C(=O)OCC(=O)N1N=C(c2ccc(Cl)cc2)CC1c1ccco1 (stereo partly specified) | -22%
CCN1CCN(CC(=O)Nc2ccc3c(c2)OCCO3)C(=O)C1=O | 2%
CCOC(=O)c1c(NS(=O)(=O)Cc2ccccc2)sc2c1CCCC2 | -27%
Cc1cccc(CNCc2ccccc2)c1 | -2%
C=CC1=C2C=C(C3CC3)N(CCN3CCOCC3)C=C2C(=O)C(C)(OC(=O)c2ccco2)C1=O (stereo unspecified) | -2%
CC(C)(C)c1ccc(OCC(=O)NNC(=O)CCc2ccccc2)cc1 | -11%
CCCCCCNC(=O)c1ccc(Br)o1 | ?
COc1ccccc1NC(=O)CSCC(N)=O | -3%
O=S(=O)(NCc1ccco1)c1cccc(S(=O)(=O)N2CCCCC2)c1 | -4%
C1CNCCN1 | -2%
Cc1cccc(NCc2nc(-c3ccccc3)no2)c1 | -11%
CCOC(=O)C1=C(C)NC(=O)NC1C1CC=CCC1 (stereo unspecified) | -7%
COc1cc(N=CC2=C(O)c3ccccc3C2=O)cc(OC)c1 | 1%
CCCCNS(=O)(=O)c1ccc(S(=O)(=O)N2CCC3(CC2)OCCO3)cc1 | -6%
Cn1cccc1Cc1nnc(SCC(=O)Nc2ccc(Cl)cc2)n1-c1ccc(F)cc1 | -11%
COc1cc(/C=C/C(=O)OCC(=O)N2CC3(C)CC2CC(C)(C)C3)ccc1O (stereo unspecified) | -19%
O=C(CN1CCc2ccccc2C1)Nc1cc(S(=O)(=O)N2CCOCC2)ccc1N1CCCC1 | -19%
COC(=O)[C@@H]1CCCN1C(=O)[C@H]1C[C@@H]1[C@H](NC(=O)OCc1ccccc1)c1ccccc1 | -3%
CCC(C(=O)O/N=C(\N)c1ccccc1)c1ccccc1 (stereo unspecified) | -14%
N=C(N)C(N=Nc1ccccc1)C(=N)N (stereo unspecified) | -8%
CCCn1c(SCC(=O)c2cc(C)ccc2C)n[nH]c1=O | -5%
O=C(Nc1ccccc1C(=O)O)c1ccccc1 | -18%
CCOC(=O)C1CCCCN1Cc1ccc(OC)c(OC)c1OC (stereo unspecified) | -3%
Cn1c(=O)c2c(SCc3cccnc3)nc(C3CC3)nc2n(C)c1=O | -4%
CCOC(=O)c1ccc(N2C(=O)c3n[nH]c(C)c3C2c2ccc(O)cc2)cc1 (stereo unspecified) | -21%
Cc1cccc(C(=O)N/N=C/c2ccc3c(c2)OCO3)n1 | ?
Cc1ccccc1CSCC(Nc1ccc(C(=O)O)cc1[N+](=O)[O-])C(=O)O (stereo unspecified) | -9%
CCc1cc2c(NCC3CCCO3)nc(C)nc2s1 (stereo unspecified) | -9%
CCn1c2ccccc2c2cc(NC(=O)CSc3nnc(-c4cccc(C)c4)o3)ccc21 | -10%
O=C(CN1CCCCCC1)N/N=C/c1cccc(Cl)c1Cl | -10%
CCN(CC)C(=O)C1CCCN(Cc2ccc(OC)c(C)c2)C1 (stereo unspecified) | -4%
CCC1CCCCN1CCCNC(=O)C1CCC(=O)N1Cc1ccc(C)cc1 (stereo unspecified) | 5%
CC(=O)CSc1ncnc2nc[nH]c12 | -11%
COC(=O)c1scc(C)c1N/N=C(\C)c1ccc(F)cc1F | -15%
CCCCS(=O)CC(COCc1ccccc1)OC(=O)CSc1nc(C)cc(C)n1 (stereo unspecified) | 2%
CCN(CC)S(=O)(=O)c1cc(NC(=O)CCCOc2ccc(C(C)=O)cc2)ccc1C | -1%

(list continues)
structure | HPGD block
CC1(C)CC(N(Cc2cccs2)C(=O)c2ccco2)CCO1 (stereo unspecified) | -7%
Cc1cc(NC(=O)c2ccc(COc3ccc(Cl)c(C)c3)o2)no1 | -14%
CC(=O)Nc1ccc(S(=O)(=O)NNC(=O)c2ccc(S(=O)(=O)N3CCCCC3)cc2)cc1 | 1%
O=C(c1cccc(S(=O)(=O)N2CCCCC2)c1)N1CCN(S(=O)(=O)c2ccc(F)cc2)CC1 | -1%
Cc1ccc2oc(=O)c3cnn(CC(=O)N(Cc4ccco4)C4CCCCC4)c3c2c1 | -11%
O=C(c1ccccc1F)N1CCN(CC2CC3C=CC2C3)CC1 (stereo unspecified) | -2%
Cc1ccc(C)c(N(C(=O)Cn2nnc3ccccc32)C(C(=O)NCc2ccco2)c2ccncc2)c1 (stereo unspecified) | 0%
COc1ccc(CCNC(=O)c2ccco2)cc1 | -3%
CCOc1ccc(OCC)c(NC(=O)CN(C)S(=O)(=O)c2ccc3nc(C)sc3c2)c1 | -14%
CCOC(=O)C1=C(CNC2CCCCC2)NC(=O)NC1c1cc(C)ccc1C (stereo unspecified) | -3%
O=C1Nc2ccccc2C12OCC(COc1ccc(Cl)cc1)O2 (stereo unspecified) | -1%
Cc1occc1C(=O)N/N=C/c1cccnc1 | -4%
CCOc1cc(-c2cn(S(=O)(=O)c3cccc4nsnc34)nc2N)cc(OCC)c1OCC | -11%
CC(C)CNS(=O)(=O)c1ccc(CCC(=O)NCC2CCCO2)cc1 (stereo unspecified) | -14%
Cc1sc2nc(C)n(/N=C/c3ccc(O)cc3)c(=O)c2c1C | 0%
CSc1nc(/C=C2\C=Nc3ccccc32)c(O)n1C | 35µM*
O=C(COC(=O)C1CC(O)CN1C(=O)Oc1ccccc1)c1ccc(Br)cc1 (stereo unspecified) | 0%
COc1cccc(C(=O)NC(Cc2ccccc2)c2ccc3c(c2)OCCCO3)c1 (stereo unspecified) | -18%
CN(c1cccc(NC(=O)CN(c2ccc(C34CC5CC(CC(C5)C3)C4)cc2)S(C)(=O)=O)c1)S(C)(=O)=O | -7%
O=[N+]([O-])c1cccc(S(=O)(=O)N2CCC(c3nc(-c4ccncc4)no3)CC2)c1 | -7%
COCCCNc1nc2c(c(=O)[nH]c(=O)n2C)n1CC(O)COc1ccccc1C (stereo unspecified) | -10%
COC(=O)c1ccc(Oc2cc(C)nc(-n3nc(C)cc3C)n2)cc1 | -4%
CCc1nc(C)cn1S(=O)(=O)c1cc(Cl)c(OC)cc1Cl | -11%
O=C(NCC1CCCO1)C1c2ccccc2C(=O)N1C1CCCCCC1 (stereo unspecified) | -2%
CCCCNS(=O)(=O)/C=C/c1ccccc1 | -3%
CCN1CCN(c2nc3sc4c(c3c(=O)n2-c2ccc(OC)cc2)CCCCC4)CC1 | -14%
CCCSC1=C(C#N)C(c2ccc(OC)cc2)C2=C(CC(C)(C)CC2=O)N1 (stereo unspecified) | -8%
COc1ccc2c(c1)[C@@]1(C)CCC[C@](C)(CO)C1CC2 (stereo partly specified) | 1%
COc1cccc2c1OCC1COc3c(c(=O)n(C)c(=O)n3C)C21 (stereo unspecified) | 0%
CCCc1nc(SCC(=O)Nc2ccc(N3CCOCC3)cc2)c2ccccc2n1 | -9%
COc1ccc(C(=O)Oc2c(C)occc2=O)cc1OC | 0%
CCN(CC)S(=O)(=O)c1cccc(NC(=O)c2cc3ccccc3o2)c1 | -20%
CCOC(=O)CCNC(C)C1COc2ccccc2O1 (stereo unspecified) | -2%

Screens: PubChem BioAssay, National Center for Advancing Translational Sciences (NCATS)

A portion of the library; count on the stated rates, not on these rows.
